Source: PubChem (National Center for Advancing Translational Sciences (NCATS))
gsp antag: gsp mutant antagonism; hit rate 0.4% among 340,000; Potency, µM (top dose mostly 76.9 µM), inactives show at the highest dose activity change, negative = inhibition, most hits filed as inhibitors; gsp-mutant cells, cAMP HTRF, 30 min; control for the full effect not named in the record; active = falling curve of any shape with a large fitted effect; inconclusive = falling curve, mostly with a smaller effect; inactive = flat or rising curve; cell line not stated here;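 note: intracellular cAMP measured with PDE inhibitor Ro 20-1724 present during compound exposure; potency is the fitted concentration of half-maximal effect; % is set by controls: 0 for no effect and ±100 for the full control effect; nearly all actives have a fitted effect of over 65% in size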
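Cells in G418 medium, seeded 16-24 h, 37C; buffer exchange to DPBS + 1 mM CaCl2, 0.5 mM MgCl2, 0.05% BSA; cpds in DMSO + […] (300 uM stock), 30 min 37C; HTRF cAMP detection.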
gsp ag: activates gsp, the McCune-Albright syndrome mutation; Potency, µM (doses to about 76.9 µM), inactives show at the highest dose activation (cAMP increase), hits mostly activators; hit rate 0.13% among 340,000; gsp mutant cells, cAMP HTRF, 30 min; control for the full effect not named in the record; active = well fitted activation curve with a large enough effect; inconclusive = small, poorly fitted or top-dose-only effect, or another doubt; inactive = no such curve, though single readings can be large or run the other way; cell line not stated here;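 note: phosphodiesterase inhibitor Ro 20-1724 added with compounds to block cAMP breakdown; potency is the fitted concentration of half-maximal effect; nearly all actives have a fitted effect of over 60% in size; about a fifth of the inactives were tested at one dose only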
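Cells in DMEM/10% FBS with G418 were pretreated with compounds in DMSO plus […] (300 uM stock) for 30 min at 37C. cAMP was measured by HTRF (cAMP-d2 plus anti-cAMP antibody-K) after 30 min at room temperature.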
Menin-MLL FL inh: displaces fluorescein MLL peptide from human menin; Fluorescence polarization, fluorescein-MLL peptide displacement from menin; FP activity change, % at 61.4 µM; 290,000 tested, under 10 active; AID 1766; inconclusive = falling polarisation curve, or a change in total fluorescence; inactive = total fluorescence flat and polarisation flat or rising; no compound was filed as active; the % refers to the polarisation; negative = inhibition;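 note: % of control where 0% means no effect; inhibitors lower the polarisation; unlabelled MLL peptide was the positive control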
Sfp inh: Sfp phosphopantetheinyl transferase inhibition. Q9F4F7. Biochemical Sfp PPTase activity, qHTS. Potency, µM, for the others: max response, negative = inhibition, usual class: inhibitors. hit rate 3.5% among 310,000. AID 1490; active = well fitted inhibition curve with a large enough effect; inconclusive = small, poorly fitted or top-dose-only effect, or another doubt; inactive = no such curve, though single readings can be large or run the other way;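 note: the enzyme is Sfp with the accession as filed and its product quenches rhodamine fluorescence; potency is the fitted concentration of half-maximal effect; 0% = enzyme reaction without inhibitor and -100% = no enzyme wells; top concentration of the series not given in the record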
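Step 1, compound plus 15 nM Sfp-PPTase, 15 min, room temperature. Step 2, add rhodamine-CoA (5 uM) and BHQ-2-YbbR (12.5 uM). Step 3, read 525/598 nm fluorescence at 0 and 30 min.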
PINK1 modulator: changes PINK1 expression | PINK1 immunofluorescence, high-content cytometry, 24 h | Potency, µM (doses to about 76.6 µM), for inactives: top-dose activation (PINK1 increase), most hits filed as activators | hit rate 0.2% among 410,000 | AID 624263; active = well fitted activation curve with a large enough effect; inconclusive = small, poorly fitted or top-dose-only effect; inactive = flat fitted curve, though single readings scatter; cell line not stated here;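 note: potency is the fitted concentration of half-maximal effect; % of control where 0% means no effect; nearly all actives have a fitted effect of over 65% in size; a mitochondrial uncoupler was the plate control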
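Decision-based qHTS: stable cells, 24 h exposure to five compound concentrations, CCCP as control. Fixed cells stained for PINK1 plus nuclear, mitochondrial and cell markers, cytometer read.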
D2 ag: human D2 receptor agonism in beta-arrestin assay; P14416; DiscoveRx PathHunter D2 beta-arrestin, luminescence, 90 min; 100% = 57 uM dopamine signal; activation, % (no concentration beside the values); hit rate 0.084% among 360,000; AID 624465; in the data active = activation above about 40%; inconclusive = about 15% to 40%; inactive = below about 15%; note: compound concentration not given in the record; the text of the record calls up to 30% inactive
Target sequence (P14416 whole entry, looked up): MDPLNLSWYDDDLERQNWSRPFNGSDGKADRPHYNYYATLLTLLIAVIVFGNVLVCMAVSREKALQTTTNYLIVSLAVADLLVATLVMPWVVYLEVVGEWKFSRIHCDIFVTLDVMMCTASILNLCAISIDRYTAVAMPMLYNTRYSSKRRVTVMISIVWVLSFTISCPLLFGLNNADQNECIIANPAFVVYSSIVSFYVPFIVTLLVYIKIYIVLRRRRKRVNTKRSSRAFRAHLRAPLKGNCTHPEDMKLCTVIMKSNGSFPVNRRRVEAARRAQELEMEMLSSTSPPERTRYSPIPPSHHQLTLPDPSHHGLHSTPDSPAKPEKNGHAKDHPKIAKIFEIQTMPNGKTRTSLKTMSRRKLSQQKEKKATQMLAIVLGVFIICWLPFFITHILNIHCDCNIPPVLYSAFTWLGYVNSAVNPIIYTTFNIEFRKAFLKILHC
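Agonist mode: compounds alone added to overnight-plated D2 PathHunter cells for 90 min at 37 C, with 57 uM final dopamine (EC100) defining full response. Beta-arrestin recruitment detected by chemiluminescent reagent, read after 1 h at ambient temperature.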
ClpP mod: qHTS Assay for Activators of ClpP. purified B. subtilis ClpP, FRET peptide cleavage, 20 min. Potency, µM (top dose mostly 57.5 µM), without a hit: top-dose activity change, negative = active. hit rate 1.9% among 340,000. AID 651965, 2013; active = well fitted falling curve with a large enough effect; inconclusive = small, poorly fitted or top-dose-only effect; inactive = no such curve, though single readings can be large or run the other way; note: potency is the fitted concentration of half-maximal effect; the source files actives as falling curves though it sought activators and does not explain the sign; nearly all actives have a fitted effect of over 65% in size; many hits overshoot -100%
Target sequence (P80244 whole entry, looked up): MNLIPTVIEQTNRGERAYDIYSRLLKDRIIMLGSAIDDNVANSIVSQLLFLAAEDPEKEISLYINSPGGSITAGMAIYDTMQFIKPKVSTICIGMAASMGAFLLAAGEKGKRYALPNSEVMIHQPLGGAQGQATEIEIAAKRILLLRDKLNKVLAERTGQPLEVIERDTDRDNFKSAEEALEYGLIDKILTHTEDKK
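Purified B. subtilis ClpP, 10 microg/mL final in Tris/HCl pH8 with KCl, BSA, glycerol and Tween-20, cleaved an Abz/nitrotyrosine-quenched decapeptide. Fluorescence (ex 320, em 430) was read at 0 and 20 min at room temperature. Delta was normalized to 5.8 microM ADEP and DMSO/no-enzyme controls.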
* = called active by the depositor; ? = inconclusive; nt = not tested or not shown; & = joins results of further samples; [ ] = remark or other dose.

SMILES	gsp antag	gsp ag	Menin-MLL FL inh	Sfp inh	PINK1 modulator	D2 ag	ClpP mod
COc1ccc(C(CNC(=O)C(=O)NC2CCCCC2)N2CCN(C)CC2)cc1 (stereo not drawn)	14%	4%	nt	nt	-0.4%	-2.6	2.3%
CCc1cc(C(=O)c2ccc(OC)cc2)c(NC(=O)CC(C)(C)CC(=O)O)s1	?	7%	-2.0	26%	0.7%	-1.5	0.8%
CCOC(=O)c1[nH]c(C)c(C(=O)NC2CCCCC2)c1C	13%	?	1.8	5%	0.0%	-0.3	0.1%
CC(=O)Nc1cccc(C(=O)OCC(=O)NCc2cc(C)c(O)c(C)c2)c1	10%	2%	nt	nt	1.8%	-1.6	-2.2%
O=C(CSc1nnc(COc2ccccc2)o1)NC1CC2CCC1C2 (stereo not drawn)	15%	1%	nt	4%	0.1%	-3.8	1.1%
CCOc1nc(NCCO)nc(NCCC2=CCCCC2)n1	9%	2%	4.1	-2%	-2.1%	-1.8	-0.7%
COc1ccc(NC(=O)Cn2nc3n(c2=S)CCC3)cc1	8%	-1%	-0.7	10%	-2.6%	-1.1	0.5%
Cn1c(SCC(=O)Nc2ccc(Br)cc2)nc(O)cc1=O	2%	-21%[15.4 µM]	-0.5	8%	0.0%	-1.5	nt
Cc1ccc(C2c3[nH]c4ccccc4c3C[C@H]3C(=O)N(c4ccccc4C(=O)N4CCC(C(=O)O)CC4)C(=O)N23)cc1 (stereo partly drawn)	-2%	nt	-0.5	30%[activator]	0.8%	3.6	-1.1%
Cc1ccc(S(=O)(=O)N2CCOCC2)cc1NC(=O)COc1ccc(C(=O)c2ccccc2)cc1	25µM*	7.9µM*	nt	nt	0.8%	2.6	0.5%
CC(C)c1ccc(NC2CCCN(C(=O)CCN3CCCCC3=O)C2)cc1 (stereo not drawn)	3%	-24%	nt	7%	-0.3%	-1.5	-2.3%
Cc1cc(C)n2nc(CC(=O)NNC(=O)c3ccc(N(C)C)cc3)nc2n1	2%	?	nt	-23%	-0.6%	4.2	-9.8%
Cc1ccc(SCCNC(=O)c2cccc([N+](=O)[O-])c2C)cc1	-7%	?	2.5	-9%	1.4%	-1.7	-1.8%
Cc1cccc(NC(=O)c2ccccc2OCC(=O)N2CCOCC2)c1C	-22%	4%	-0.3	17%	0.5%[38.3 µM]	0.0	1.0%
Cn1c(COc2ccccc2O)[n+](C)c2ccccc21	5%	-33%	-2.3	18%	3.2%	-1.8	-2.0%
CC(C)c1cc(N2CCN(C(=O)c3ccco3)CC2)n2c(nc3ccccc32)c1C#N	-12%	?	-0.8	17%	-0.3%	4.0	?
COc1cccc(-n2c(CN3CCN(c4ccccc4)CC3)nc3ccc([N+](=O)[O-])cc3c2=O)c1	-8%	16%	4.0	28µM*	-4.1%	0.7	-6.7%
Cc1ccc(C(=O)Nc2ccncc2)o1	0%	-3%	1.8	12%	-0.5%	-1.8	-0.3%
Cc1ccc(C)c(NC(=O)c2cc(C)nc3ccccc23)c1	1%	0%	3.2	11%	0.1%	-0.5	2.7%
O=C(Nc1ccccc1C(F)(F)F)N1CCN(c2ccc3nncn3n2)CC1	-1%	2%	1.2	10%	-1.2%[38.3 µM]	2.7	-1.4%
Cc1ccc([C@H]2C[C@H](n3cc(C4CC4)nn3)[C@@H](O)CN2CC2CCCCC2)cc1	nt	-32%[inhibitor]	nt	nt	?	-1.8	-4.7%
COc1ccc(/C=C/C(=O)c2ccc(O)cc2O)cc1	nt	nt	8.1	-61%	1.8%	nt	nt
COc1ccc(N2CCN(C(=O)CCCN3C(=O)c4cccc5cccc(c45)C3=O)CC2)cc1	-24%	?	-0.6	-16%	-1.1%[38.3 µM]	-3.0	-18%
COc1ccccc1CNC(=O)CN1C(=O)CSc2ccc(S(=O)(=O)N3CCCC3)cc21	-7%	2%	-1.8	11%	1.5%&0.2%	-4.3	1.2%&1.5%
CCCC(=O)Nc1ccc(NC(=O)c2ccccc2F)cn1	6%	12%	1.0	8%	2.2%	-0.1	0.9%
CC(C)(C)C(=O)c1no[n+]([O-])c1/C(=N/O)C(C)(C)C	-1%	7%	-0.5	0%	23%	2.8	0.0%
COc1cccc(NC(=O)COC(=O)Cn2c(C)csc2=O)c1	4%	1%	nt	nt	0.6%	5.2	0.0%
CC(C)(C)NC(=O)CN(C(=O)CS(=O)CC(=O)Nc1ccc(F)cc1)c1ccc(F)c(Cl)c1 (stereo not drawn)	7%	13%	0.2	-2%	?	-1.2	1.7%
COc1ccc(CCNC(=S)N2CCN(S(=O)(=O)c3cccc(F)c3)CC2)cc1	6%	-20%	nt	nt	2.6%	-1.0	0.0%
Cc1ccc(C)c(NC(=O)c2nnn(Cc3ccccc3C)c2N)c1	2%	12%	0.1	4%	-2.1%	-3.2	-0.3%
Cc1nnc(C)c2c(C)n(-c3ccc4ncccc4c3)c(C)c12	-6%	-3%	-3.1	-5%	-0.4%	2.2	-7.2%
Cc1ccc(C(=O)c2cn[nH]c2-c2cc(Cl)ccc2O)cc1	-24%	-39%[inhibitor]	3.0	-18%	0.0%[38.3 µM]	-3.4	-0.8%
COc1ccc(OC)c(NC(=O)c2csc(Cl)c2OC)c1	-21%	?	-3.0	-11%	-0.6%	-7.2	-10%
O=C(Nc1ccnc(-c2cccnc2)n1)c1ccc(Cl)c(Cl)c1	3%	?	2.6	2%	5.2%[38.3 µM]	0.6	0.0%
C=CCN(CC=C)C(=O)CN1C(=O)NC(c2ccccc2)(c2ccccc2)C1=O	-1%	7%[15.4 µM]	nt	8%	-0.1%	-2.4	nt
CCN(C(=O)COc1ccc(C(=O)c2ccccc2)cc1)c1ccccc1	?	2%	3.5	1%	-1.4%	-5.8	nt
CCOC(=O)C1(CCOc2ccccc2)CCN(Cc2cccc(-n3cccn3)c2)CC1	-1%	3%	-2.6	-1%	9.5%	6.0	1.9%
COC(=O)Cc1cc(=O)[nH]c(/N=C(\N)Nc2ccccc2C)n1	-5%	21%	-4.5	10%	4.3%[38.3 µM]	0.2	1.1%
Cc1cc(C)n(C(=O)c2cc3c(s2)CCCC3)n1	-8%	-10%	7.2	-23%	0.5%	-1.5	-6.5%
O=C(N1CCCC1)C12CCC3CC(CC(C3)C1)C2	8%	-56%[inhibitor]	-0.9	17%	-2.4%	-1.3	-0.6%
Cc1cnn(C(=S)NCC2CCCO2)c1 (stereo not drawn)	7%	4%	-1.1	-25%	-0.8%	-1.6	-4.8%
CCOc1ccc2nc(NC(=O)c3cccc(-c4cc5ccccc5oc4=O)c3)sc2c1	13%	15%[15.4 µM]	0.9	-28%	-1.0%	-4.1	nt
Cc1ccccc1OCC(=O)NCC(=O)OCc1ccc(Br)cc1	-9%	-21%	nt	4%	2.0%	6.7	-3.7%
CC1CCCN(CC(O)COc2ccc(-c3ccccc3)cc2)C1 (stereo not drawn)	14%	-28%[15.4 µM]	0.0	0%	-0.3%	-3.7	nt
Cc1ccc(S(=O)(=O)NC(=O)C2(C)CCN2C(=O)Cc2cccs2)nc1 (stereo not drawn)	nt	nt	nt	nt	-0.1%	-3.1	-0.2%
CN(C)c1ccc(C(=O)/C=C/c2ccco2)cc1	-10%	-3%	18	50µM*	9.7%	-2.1	-0.7%
CC(C)(C)c1ccc(C(=O)OCc2c(-c3ccccc3)ncc3ccccc23)cc1	4%	nt	nt	nt	6.9%	-5.3	?
COc1ccc(-c2cnc3c(NC(C)=O)cc(-c4cccc(C(=O)NCCN(C)C)c4)cn23)cc1OC	nt	nt	nt	nt	7.7%	2.1	-6.5%
O=C(N1CCCCC1)N1CCCN(C(=O)N2CCCCC2)CC1	0%	13%	1.1	9%	-1.1%	-3.8	1.5%
COc1ccc(S(=O)(=O)N(C)C[C@H]2Oc3ccc(NS(=O)(=O)c4ccccc4)cc3CC(=O)N([C@H](C)CO)C[C@@H]2C)cc1	-10%	nt	nt	nt	0.3%	-1.4	1.9%

(next part)
SMILES	gsp antag	gsp ag	Menin-MLL FL inh	Sfp inh	PINK1 modulator	D2 ag	ClpP mod
CC(C(=O)NCCS(=O)(=O)c1ccc(Br)cc1)S(=O)(=O)c1ccc(Cl)cc1 (stereo not drawn)	-9%	-20%	4.6	0%	3.9%	-4.4	nt
COc1ccccc1-n1cc(CN2CCN(CC=C(C)C)C(CCO)C2)cn1 (stereo not drawn)	12%	11%	-1.7	13%	-0.3%	-1.6	-2.8%
CC(=O)Nc1ccc(S(=O)(=O)Nc2nccc(/C=C/c3ccc(Cl)cc3)n2)cc1	-4%	17%	4.1	16%	-1.2%	1.3	-9.2%
O=C(c1ccccc1)N1CCC(c2nc3c(nnn3Cc3ccco3)c(=O)[nH]2)CC1	-13%	20%	1.0	5%	0.0%	5.5	-4.7%
CCn1c(SCC(=O)Nc2ccc(OC)cc2)nc2nc3c(cc2c1=O)COC(C)(C)C3	-5%	-38%	-0.4	6%	3.8%	-3.1	0.9%
O=C(Nc1ccc2c(c1)OCO2)c1cc(C2CCCCN2C(=O)c2ccc3ccccc3c2)on1 (stereo not drawn)	nt	nt	nt	nt	4.3%	4.2	-18%
CCOC(=O)c1cc(C)n(Cc2cccc(OC)c2OC)c1C	?	-35%	-2.3	9%	0.7%	-1.5	0.5%
CC1CCCCC1NC(=O)c1ccc(S(=O)(=O)NCC2CCCO2)cc1 (stereo not drawn)	7%	-5%[15.4 µM]	1.0	0%	1.8%	-2.8	-1.2%
Cc1ccccc1-c1nc(CS(=O)CC(=O)NC2CC2)c(C)o1 (stereo not drawn)	-16%	-4%	nt	5%	-0.6%	-0.8	-5.9%
COC(=O)c1sccc1NS(=O)(=O)c1ccc(OC)cc1	-19%	-53%[inhibitor]	-1.7	-1%	nt	-3.0	-0.9%
O=C(CN(C(=O)CCC(=O)Nc1ccccn1)c1ccccc1F)NCc1ccc2c(c1)OCO2	nt	6%[15.4 µM]	-0.4	3%	-0.2%	1.4	nt
Cc1ccc(OCC(=O)Oc2c(C)cccc2C)cc1	4%	18%	-2.2	16%	7.5%	-5.2	2.9%
N#Cc1nc(-c2cccc3ccccc23)oc1NCCN1CCCCC1	19%	?	7.5	-8%	2.5%[38.3 µM]	-2.4	?
